GIRK2 act: GIRK2 channel activation | P48051 | AID 1259325 | HEK293-GIRK2 thallium flux, Thallos fluorescence | calls only for hits at 25 µM | 63,000 tested, 0.05% active;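 active means among the strongest 0.2% of first-round signals and kept after retests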;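 further: first round at about 10 µM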
Target sequence (P48051 whole entry, looked up): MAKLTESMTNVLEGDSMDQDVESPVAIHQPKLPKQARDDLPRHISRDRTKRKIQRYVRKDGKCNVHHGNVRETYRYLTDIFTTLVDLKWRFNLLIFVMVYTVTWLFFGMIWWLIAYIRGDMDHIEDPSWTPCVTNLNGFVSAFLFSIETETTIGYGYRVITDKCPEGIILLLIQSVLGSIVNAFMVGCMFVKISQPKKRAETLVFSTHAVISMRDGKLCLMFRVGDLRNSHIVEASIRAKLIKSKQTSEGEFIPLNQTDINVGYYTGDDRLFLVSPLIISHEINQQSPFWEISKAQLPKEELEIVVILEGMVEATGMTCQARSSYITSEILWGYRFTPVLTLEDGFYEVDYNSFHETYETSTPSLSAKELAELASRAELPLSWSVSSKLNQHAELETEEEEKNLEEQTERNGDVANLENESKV
Calls only; i = inactive. This is a subset. The share of hits here may be higher or lower than overall.

GIRK2 act | compound
i | COc1ccc(C)cc1NC(=O)C(C)Cn1nc(-c2cccs2)ccc1=O (centres undefined)
i | COc1ccc(-c2cc(N3CCCC3)ncn2)cc1
i | O=C(Nc1nc2c(s1)Cc1ccccc1-2)c1cnccn1
i | Nc1c(C(=O)c2cccc(C#CCN3CCOCC3)c2)cnn1-c1ccc(F)cc1
i | COc1ccc(S(=O)(=O)NCC2CCN(C(=O)c3ccoc3)CC2)cc1Cl
i | COc1cccc(C(=O)Nc2nnc(-c3cc(OC)cc(OC)c3)o2)c1
i | COc1cc(C)c(Br)cc1S(=O)(=O)NCCN1CCOCC1
i | CCc1ccccc1NC(=O)CSc1cc(N2CCN(c3ccccc3OC)CC2)ncn1
i | CCN(CC)C(=O)Cn1cc(C(=O)C(=O)NCCOC)c2ccccc21
i | COc1cc2ccccc2cc1C(=O)Nc1nnc(-c2ccc(C)cc2C)o1
i | CCCCCC(=O)OC1C=C(CO)C(O)(CO)C2(C)C(O)CCC(C)(C)C12 (centres undefined)
i | COC(=O)CN(C)C(=O)NCC12CC3CC(CC(C3)C1)C2
i | COc1cccc2cc(C(=O)Nc3cnoc3)c(=O)oc12
i | Cc1nc(N2CCN(C(=O)Cc3ccc(F)cc3)CC2)cc(-n2cccc2)n1
i | COc1ccc(F)cc1S(=O)(=O)N1CCN(c2ccc3nnc(C)n3n2)CC1
i | O=C(NCC1CC1)c1ccc(-c2cccc(C(=O)NC3CC3)c2)cc1
i | Cc1nc(-c2nnc(NC(=O)Cc3ccc4c(c3)OCO4)o2)cs1
i | Cn1nnnc1SCC(=O)N1CCC(Oc2ccc(C#N)cn2)CC1
i | CCOC(=O)c1ccc(N2Cc3ccc(OC)c(OC)c3C2=O)cc1
i | CCC(=O)N1CCN(c2nc3ccc(S(C)(=O)=O)cc3s2)CC1
i | CCCCOc1ccccc1-c1cc(C(=O)N2CCSCC2)[nH]n1
i | COc1ccc(S(=O)(=O)NCC2CCN(c3cnccn3)CC2)cc1Cl
i | Cc1cc(C)c2c(n1)nn1c(N3CCN(c4ccccn4)CC3)cc(C)nc21
i | CC(=O)Nc1ccc(Nc2nc3ccccc3nc2NS(=O)(=O)c2cccc(C)c2)cc1
i | CCOC(=O)c1cn[nH]c1S(=O)(=O)Nc1ccc2c(c1)OCCO2
i | O=C(Nc1nc(C(=O)N2CCN(c3ccc(C(F)(F)F)cn3)CC2)co1)C1CC1
i | COCCn1c(C(=O)Nc2cccc(C(C)=O)c2)cc2c(=O)n(C)c(=O)n(C)c21
i | O=C(Cc1ccccc1Cl)N1CCN(C(=O)C2CC2c2ccccc2)CC1 (centres undefined)
i | CCN(CC)C(=O)CCCCCn1c(=S)[nH]c2ccccc2c1=O
i | COc1ccc(Cl)cc1NC(=O)NCc1ccsc1
i | CCOc1ccc(Nc2c(C(=O)N3CCCC3)cnc3nc(C)ccc23)cc1
i | CCC(C)NC(=O)CCn1c(=O)c2ccccc2n2c(=O)n(Cc3cccc(OC)c3)nc12 (centres undefined)
i | Cc1nc(OCC(=O)Nc2cnc(-n3cccn3)nc2)cc(-n2cccn2)n1
i | CN1CCN(c2cc(NC(=O)Cc3cccc4ccccc34)ncn2)CC1
i | C=CCCC(=O)N1CCC2(CC1)OCCS2
i | O=C1NC(=NCc2cccs2)SC1Cc1ccc2ncccc2c1 (centres undefined)
i | CCc1cc(=O)n(CC(=O)Nc2ccc(C(F)(F)F)cc2)c(C)n1
i | COc1ccc(C2(CNC(=O)CSC3CCCC3)CCOCC2)cc1
i | CC(=O)c1cccc(NC(=O)CSc2nccn2-c2ccc(C(=O)NCc3ccccc3)cc2)c1
i | CCOc1ccc(C(=O)N2CCC(c3nnc(C4CC4)o3)CC2)cc1
i | COc1ccc2c(c1)c(=O)c(S(=O)(=O)c1ccccc1)cn2CC(=O)Nc1cccc(Cl)c1
i | O=C(CNC(=O)c1ccc(=O)[nH]c1)Nc1ccc(F)c(Cl)c1
i | Cc1cc(OCC(=O)N(C)C2CCCCC2)ccc1Cl
i | O=C(Cn1cc(S(=O)(=O)N2CCCCC2)ccc1=O)NC1CCCCC1
i | O=C(NCCC(O)c1ccoc1)c1c(F)cccc1F (centres undefined)
i | COCCN(Cc1ccoc1)C(=O)CN1C(=O)CCC1=O
i | COc1ccc(SCCCC(=O)Nc2sc3c(c2C(N)=O)CCCC3)cc1
i | Cc1cc2oc3c(c(=O)c2cc1Cl)C(c1cccc(O)c1)N(c1nccs1)C3=O (centres undefined)
i | O=C(CCSc1ccccc1)N(CCc1cccs1)Cc1ccco1
i | O=C(CC1Sc2ccc(C(F)(F)F)cc2NC1=O)Nc1ccc(F)c([N+](=O)[O-])c1 (centres undefined)

(next part)
GIRK2 act | compound
i | O=C(Cc1ccc(F)cc1)NCC(c1cccc2ccccc12)N1CCOCC1 (centres undefined)
i | O=C(CCCn1cnc(-c2ccccc2)cc1=O)NCc1ccccc1Cl
i | CCOC(=O)c1ccc(S(=O)(=O)NCCOc2ccc(F)cc2)cc1
i | CN(Cc1ccccc1)S(=O)(=O)c1ccc(C(=O)Nc2ccc3c(c2)OCO3)cc1
i | COc1ccc(S(=O)(=O)N(C)c2ccsc2C(=O)NCc2ccccc2C(F)(F)F)cc1
i | COc1cccc2cc(C(=O)N3CCN(C(=O)C4CC4c4ccc(F)cc4)CC3)oc12 (centres undefined)
i | O=C(CN1CCC(c2nnc(C(F)(F)F)o2)CC1)Nc1ccc2c(c1)OCCO2
i | COCCNC(=O)CSc1nc(-c2ccc(F)cc2)[nH]c1-c1ccccc1
i | O=C(NCc1nn(C2CCCC2)c(=O)c2ccccc12)Nc1ccccc1C(F)(F)F
i | O=C(CCC1NC(=O)c2ccccc2NC1=O)Nc1ccc(F)c(Cl)c1 (centres undefined)

Quoted at random: 2 compounds from above
GIRK2 act | compound
i | O=C(Cc1ccc(F)cc1)NCC(c1cccc2ccccc12)N1CCOCC1 (centres undefined)
i | O=C(CCC1NC(=O)c2ccccc2NC1=O)Nc1ccc(F)c(Cl)c1 (centres undefined)

15 entries from above, as tab-separated lines.
smiles	GIRK2 act
Cc1cc(OCC(=O)N(C)C2CCCCC2)ccc1Cl	i
O=C(Cn1cc(S(=O)(=O)N2CCCCC2)ccc1=O)NC1CCCCC1	i
O=C(NCCC(O)c1ccoc1)c1c(F)cccc1F (centres undefined)	i
COCCN(Cc1ccoc1)C(=O)CN1C(=O)CCC1=O	i
COc1ccc(SCCCC(=O)Nc2sc3c(c2C(N)=O)CCCC3)cc1	i
Cc1cc2oc3c(c(=O)c2cc1Cl)C(c1cccc(O)c1)N(c1nccs1)C3=O (centres undefined)	i
O=C(CCSc1ccccc1)N(CCc1cccs1)Cc1ccco1	i
O=C(CC1Sc2ccc(C(F)(F)F)cc2NC1=O)Nc1ccc(F)c([N+](=O)[O-])c1 (centres undefined)	i
O=C(Cc1ccc(F)cc1)NCC(c1cccc2ccccc12)N1CCOCC1 (centres undefined)	i
O=C(CCCn1cnc(-c2ccccc2)cc1=O)NCc1ccccc1Cl	i
CCOC(=O)c1ccc(S(=O)(=O)NCCOc2ccc(F)cc2)cc1	i
CN(Cc1ccccc1)S(=O)(=O)c1ccc(C(=O)Nc2ccc3c(c2)OCO3)cc1	i
COc1ccc(S(=O)(=O)N(C)c2ccsc2C(=O)NCc2ccccc2C(F)(F)F)cc1	i
COc1cccc2cc(C(=O)N3CCN(C(=O)C4CC4c4ccc(F)cc4)CC3)oc12 (centres undefined)	i
O=C(CN1CCC(c2nnc(C(F)(F)F)o2)CC1)Nc1ccc2c(c1)OCCO2	i

Additional records
GIRK2 act | compound
i | COc1ccc(-c2nn3c(NCCN(C)C)cc(C)nc3c2C)cc1OC
i | CSc1ccccc1CN1CCC(CNC(=O)c2cc(-c3ccc(F)cc3)nn2C)CC1
i | O=C(Cn1cc(S(=O)(=O)N2CCCC2)ccc1=O)Nc1ccccc1Cl
i | COC(=O)c1ccc(NC(=O)C(=O)NCC(c2ccc3c(c2)CCO3)N(C)C)cc1 (centres undefined)
i | Cc1nn(-c2nc3c(c(=O)n(CCN4CCOCC4)c(=O)n3C)n2C)c(C)c1C
i | CCOC(=O)c1cccc(NC(=O)Cn2cnc3nc(N4CCC(C(=O)NC)CC4)sc3c2=O)c1
i | CC(C)c1ccc(OCC(=O)Nc2ccccc2NC(=O)c2ccccc2Cl)cc1
i | CCc1cccc(NC(=O)Nc2cnc(N3CCN(c4ccccn4)CC3)nc2)c1
i | CCc1ccccc1Sc1nccn2c(=O)n(CC(=O)NCc3cccs3)nc12
i | Cc1ccc(C)c(NC(=O)COc2cc(C)nc(N3CCCCCC3)n2)c1
i | Cc1ccc(=O)n(C(C)C(=O)NCCc2c[nH]c3ccccc23)n1 (centres undefined)
i | Cc1ccc(NC(=O)CN(C)C(=O)c2ccc(=O)[nH]c2)cc1F
i | Cc1ccc(NC(=O)Cn2nc(NC(C)C)c(-c3nc(-c4ccc(Cl)cc4)no3)c2N)c(C)c1
i | COc1ccc(Cl)cc1NC(=O)C(=O)NCC(c1cccn1C)N1CCCC1 (centres undefined)
i | COc1ccc(-n2ccnc(SCc3cccc(OC)c3)c2=O)cc1
i | CCSc1ccccc1C(=O)N1CCN(c2ncnc3c2nnn3-c2ccc(C)cc2)CC1
i | Cc1ccc(Cl)cc1NC(=O)c1nnn(-c2ccc(Br)cc2)n1
i | COc1ccc(CCNS(=O)(=O)c2c(C)c(C)cc(C)c2C)cc1OC
i | CC1C[C@H]2OC2/C=C/C=C\C(=O)Cc2c(Cl)c(O)cc(O)c2C(=O)O1 (some centres undefined)
i | O=C(Cn1cnc2ccccc2c1=O)NCCc1ccsc1
i | O=C(NCc1cccs1)Nc1ccc2c(c1)N(S(=O)(=O)c1ccccc1)CCC2
i | CCOc1ccccc1CNC(=O)Cn1cnc2c([nH]c3ccc(C)cc32)c1=O
i | CCOC(=O)c1c(-c2ccc(C)o2)csc1NC(=O)CSc1ncn[nH]1
i | Cc1cn2c3c(=O)[nH]c(=O)n(C)c3nc2n1CCN1CCN(c2cccc(Cl)c2)CC1
i | COCCN(Cc1ccoc1)S(=O)(=O)c1ccsc1C(=O)OC
i | O=C(CSc1nc(-c2ccccc2)cc(C(F)(F)F)n1)N1CCOCC1
i | CCC(C(=O)Nc1cc(F)ccc1F)n1cc(-c2nc(C)no2)ccc1=O (centres undefined)
i | COc1ccc(S(=O)(=O)N2CCCC2CNC(=O)c2cc(OC)c(OC)c(OC)c2)cc1 (centres undefined)
i | CC(=O)N[C@@H](Cc1ccc(OP(=O)(O)O)cc1)C(=O)N[C@H]1CCC(=O)N2CCC[C@@H](C(=O)Nc3cccc4ccccc34)N2C1=O
i | Cn1cccc1CN(Cc1cccs1)C(=O)CN1C(=O)CCC1=O
i | Cc1ccc(N2CC(C(=O)NCC3CCN(C(=O)c4ccncc4)CC3)CC2=O)cc1C (centres undefined)
i | O=C(/C=C/c1ccc2c(c1)OCO2)Nc1ccc2c(c1)OCO2
i | Cc1c(-c2noc(-c3ccc4c(c3)OCO4)n2)nnn1Cc1ccccc1
i | CCOC(=O)c1ccc(NC(=O)CSc2ccc(N3CCCCCC3)nn2)cc1
i | COc1ccc(S(=O)(=O)N2CCN(c3ccc(-c4ccccc4C)nn3)CC2)cc1C
i | Cc1ccccc1NC(=O)N1CCN(c2cc(Nc3ccccn3)ncn2)CC1
i | O=C(Cn1cnc2c(c1=O)CCCC2)Nc1cc(Cl)ccc1Cl
i | Cn1cnnc1SCCNC(=O)c1ccc(OCc2nc(-c3ccco3)cs2)cc1
i | C=C(C)COc1ccc2c(c1)O/C(=C\c1ccc([N+](=O)[O-])cc1)C2=O
i | CS(=O)(=O)C1CCN(C(=O)c2ccc(Cl)s2)C1 (centres undefined)
i | COc1ccc(-c2c(C)c3c(C)cc(OC(C)=O)cc3oc2=O)cc1
i | COc1ccc2cc(C(=O)NCCn3nc(-c4ccccn4)n(C)c3=O)[nH]c2c1
i | COc1ccc(OC)c(C(=O)CC2c3c(cc4c(c3OC)OCO4)CCN2C)c1 (centres undefined)
i | CCOc1ccc(NC(=O)/C=C/c2ccc(OC)c(OC)c2)cc1
i | COc1cccc(CSc2nc(CC(=O)Nc3ccc4c(c3)OCCO4)cc(=O)[nH]2)c1
i | CC(C)N(CC#CCNS(=O)(=O)c1ccc(F)cc1)C(C)C
i | O=C(c1cc2ccccc2o1)N1CCC(Oc2cnccn2)CC1
i | COc1ccc(CNC(=O)CSc2nccn3nc(-c4ccc(Cl)cc4)cc23)cc1OC
i | CCOc1ccccc1NC(=O)Cc1cc(=O)[nH]c(SCc2cccc(OC)c2)n1
i | Cn1nc(-c2ccccc2)cc1C(=O)NCCn1cnc(-c2ccccc2)cc1=O

(further entries)
GIRK2 act | compound
i | COCCCn1c(C(=O)NC(C)c2ccccc2)cc2c(=O)n(C)c(=O)n(C)c21 (centres undefined)
i | COc1cccc(NC(=O)CCSc2nnc3ccc4ccccc4n23)c1
i | COc1ccc(CNC(=O)N2CCN(Cc3nc4ccccc4[nH]3)CC2)cc1OC
i | O=c1oc2cc(OCC(O)Cn3ccnc3)ccc2c2c1CCC2 (centres undefined)
i | Cc1ccc(C)c(N2CCN(C(=O)C3CCN(c4ccc(-n5cccn5)nn4)CC3)CC2)c1
i | COc1ccc(Cl)cc1S(=O)(=O)N1CCN(S(=O)(=O)c2cc(Cl)ccc2OC)CC1
i | Cc1cc(C)cc(N2C(=O)N(c3cccc([N+](=O)[O-])c3)C3CS(=O)(=O)CC32)c1 (centres undefined)
i | CC(=O)Nc1cccc(C(=O)CSc2nnc(Cn3ccc(=O)[nH]c3=O)o2)c1
i | O=C(c1cnccn1)N1CCN(CC(O)c2ccco2)CC1 (centres undefined)
i | Cc1cc(C)c(S(=O)(=O)N2CCCCC2)c(C)c1[N+](=O)[O-]
i | COCCN(Cc1ccoc1)C(=O)Nc1ccc(Cl)c(Cl)c1
i | CC(=O)c1sc(NC(=O)c2cccc(S(=O)(=O)N3CCOCC3)c2)nc1C
i | COc1ccc2cc(CNc3ccc(C)cc3)c(=O)n(CC(=O)NCCc3ccccc3)c2c1
i | C#CCCNS(=O)(=O)c1cc(C)c(Cl)cc1Cl
i | C#CCn1c(=NC(=O)c2c(C)cnn2C)sc2cc(F)ccc21
i | CC(C)NC(=O)CCc1csc(NC(=O)Nc2cccc(Cl)c2)n1
i | C[C@H]1[C@@H](O)[C@H](O)C2[C@]3(C)C([C@@H](O)[C@H]4OC(=O)[C@@H]1[C@@]24C)[C@](C)(O)C=C[C@H]3O[C@@H]1O[C@H](CO)[C@@H](O)[C@H](O)[C@H]1O (some centres undefined)
